Cruzain Triton = blocks cruzain activity in presence of Triton detergent. purified cruzain, Z-FR-AMC fluorescence, 0.01% Triton. P25779. Potency, µM, for inactives: max response, negative = inhibition, usual class: inhibitors. 200,000 tested, 0.43% active. AID 1478;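 further: plate controls were neutral wells for no effect and buffer without enzyme for full effect; nearly all actives have a fitted effect of over 40% in size; top concentration of the series not given in the record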
Target sequence (P25779 123-467 limits assumed): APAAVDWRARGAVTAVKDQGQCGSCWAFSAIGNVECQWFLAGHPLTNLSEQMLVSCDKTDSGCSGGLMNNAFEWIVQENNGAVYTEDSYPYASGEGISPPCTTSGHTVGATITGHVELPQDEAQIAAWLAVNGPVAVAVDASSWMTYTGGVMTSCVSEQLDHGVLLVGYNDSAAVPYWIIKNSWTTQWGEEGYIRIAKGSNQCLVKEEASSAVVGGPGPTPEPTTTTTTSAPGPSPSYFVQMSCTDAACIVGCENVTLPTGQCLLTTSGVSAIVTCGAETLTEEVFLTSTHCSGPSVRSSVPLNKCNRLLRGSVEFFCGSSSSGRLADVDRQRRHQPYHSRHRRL
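Detergent-containing arm of a paired screen for aggregation-based inhibition: 0.01% Triton X-100 present. Cruzain at 1.5 nM cleaved 2 uM Z-FR-AMC at pH 5.5 with 5 mM DTT; AMC fluorescence gain over 60 s measured activity.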
StopGo reporter = lowers the luciferase signal of an FMDV 2A StopGo reporter | human cells with a luciferase reporter of 2A StopGo recoding; control for the full effect not named in the record | Potency, µM (doses to about 57.9 µM), without a hit: at the highest dose signal change, negative = less light | 410,000 tested, 1.2% active; active = well fitted falling curve with a large enough effect; inconclusive = small, poorly fitted or top-dose-only effect; inactive = no such curve, though single readings can be large or run the other way; tested in HEK293T cells; further: on the % scale 0 is the no-effect control and ±100 the full control effect; nearly all actives have a fitted effect of over 45% in size; luciferase light after 4 h
NS1 inh = inhibitors of influenza NS1 protein function; S. cerevisiae slowed by influenza A NS1, growth recovery by OD600; 270,000 tested, 0.4% active; Potency, µM (series often up to 46.1 µM), for the others: at the highest dose activity, positive = more growth; AID 2326; active means well fitted rising curve with a large enough effect; inconclusive means small, poorly fitted or top-dose-only effect; inactive means no such curve, though single readings can be large or run the other way; further: nearly all actives have a fitted effect of over 50% in size
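OD600 was taken as the measure of yeast growth restored by compound in an NS1-expressing S. cerevisiae strain. Cells had been washed out of glucose medium and diluted 1:100 into galactose -URA medium, pH 6.0.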
Cruzain inh noDet = blocks cruzain activity in detergent-free assay | P25779 | purified cruzain, Z-FR-AMC fluorescence, no detergent | Potency, µM, for the others: max response, negative = inhibition, actives largely listed as inhibitors | 200,000 tested, 2.3% active | AID 1476;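 further: plate controls were enzyme without inhibitor for no effect and buffer without enzyme for full effect; nearly all actives have a fitted effect of over 40% in size; top concentration of the series not given in the record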
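Detergent-free condition (0.00005% Triton X-100) in acetate buffer pH 5.5 with DTT. 1.5 nM enzyme and compound were pre-mixed 15 min, then 2 uM Z-FR-AMC substrate added; reaction progress from fluorescence change between first and third reads (60 s).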
RE007 growth inh = less growth of the S. pombe RE007 Vpr strain; Potency, µM (series often up to 92.2 µM), for the others: at the highest dose activity change, negative = less growth; S. pombe RE007 Vpr strain, BacTiter-Glo ATP luminescence, 24 h; control for the full effect not named in the record; 360,000 tested, 0.21% active; active = well fitted falling curve with a large enough effect; inconclusive = small, poorly fitted or top-dose-only effect; inactive = no such curve, though single readings can be large or run the other way;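 further: on the % scale 0 is the no-effect control and ±100 the full control effect; nearly all actives have a fitted effect of over 50% in size; the assay follows cell death caused by Vpr and the record does not say whether a fall means rescue or toxicity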
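Fission yeast strain RE007, carrying one chromosomally integrated HIV-1 vpr copy, was seeded at OD 0.01 in PMG+AL medium with 23 nL pinned compound. After 24 h at 30 °C and 99% humidity, viability was read by BacTiter-Glo luminescence.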
LASV entry inh = inhibitors of Lassa virus binding or cell entry; 300,000 tested, 1.2% active; Lassa virus pseudotype entry inhibition, cell reporter; control for the full effect not named in the record; Potency, µM (top dose mostly 37.9 µM), for the others: at the top dose activity change, negative = inhibition, most hits filed as inhibitors; active means well fitted inhibition curve with a large enough effect; inconclusive means small, poorly fitted or top-dose-only effect, or effect the other way; inactive means flat fitted curve, though single readings scatter; tested in HEK293 cells; further: on the % scale 0 is the no-effect control and ±100 the full control effect; nearly all actives have a fitted effect of over 50% in size; luciferase read-out
Marburg entry inh = blocks Marburg virus binding to or entry into cells; Marburg virus pseudotyped entry inhibition, cell reporter; control for the full effect not named in the record; about a third of the inactives were read at about 46 µM; Potency, µM (top dose mostly 37.8 µM), without a hit: at the highest dose activity change, negative = inhibition, usual class: inhibitors; 300,000 tested, 1.8% active; active = well fitted inhibition curve with a large enough effect; inconclusive = small, poorly fitted or top-dose-only effect, or effect the other way; inactive = flat fitted curve, though single readings scatter; tested in HEK293 cells; about a fifth of its hits are not listed in these tables; further: on the % scale 0 is the no-effect control and ±100 the full control effect; luciferase read-out
SARS PLpro yeast = inhibitors of SARS-CoV papain-like protease in yeast; S. cerevisiae expressing SARS-CoV PLpro, growth rescue; control for the full effect not named in the record; Potency, µM (titrated, usually from 32.9 µM), for the others: top-dose activity, positive = growth rescue; AID 485353; 330,000 tested, 0.19% active; active means well fitted rising curve with a large enough effect; inconclusive means small, poorly fitted or top-dose-only effect; inactive means no such curve, though single readings can be large or run the other way; further: 0% is about no effect; nearly all actives have a fitted effect of over 55% in size; growth read by luminescence after 48 h
Active calls of the source: *; ? = inconclusive; · = not tested or not shown; [ ] = dose if it differs, or a comment. Unless noted, the call rests on the fitted dose curve; in most records, active means well fitted curve in the direction sought with a large enough effect; inconclusive means small, poorly fitted or top-dose-only effect, or another doubt; inactive means no such curve, though single readings can be large; an effect the other way counts as inactive or inconclusive. Potency means the concentration at half of the fitted maximal effect. Rows were taken by chance; overall some 4.7% were active at least once.

SMILES	Cruzain Triton	StopGo reporter	NS1 inh	Cruzain inh noDet	RE007 growth inh	LASV entry inh	Marburg entry inh	SARS PLpro yeast
Cc1ccc(-n2c(=O)cc(N3CCN(c4ccccc4Cl)CC3)[nH]c2=O)cc1	1.1%	-22%	·	-10%	·	2%[46.1 µM]	·	·
CSc1cccc(NC(=S)NCCCN2CCN(c3ccc(F)cc3)CC2)c1	·	-4%	2%	·	19%	22%	-3%[46.1 µM]	-1%
COc1ccc(N(CC(=O)NC2CCCCC2)S(=O)(=O)c2cccnc2)cc1	0.6%	-5%	-26%	-2%	2%	·	·	-4%
CC1(C)CC(=O)C2=C(C1)NC1=C(C(=O)c3ccccc31)C2c1cc([N+](=O)[O-])ccc1O (stereo not drawn)	·	-29%	-3%	·	-5%	?	?	0%
O=C(COc1ccc(S(=O)(=O)N2CCOCC2)cc1)NCCCn1ccnc1	·	-17%	7%	·	-7%	?	3%[46.1 µM]	2%
O=C(NCC(c1cccs1)S(=O)(=O)c1cccs1)c1ccccc1F (stereo not drawn)	-2.6%	12%	·	9%	·	1%[46.1 µM]	·	·
O=C(c1cccc2ccccc12)C1CCCN(C(=O)c2ccc(N3CCOCC3)cc2)C1 (stereo not drawn)	·	?	0%	·	-8%	-23%	-15%[46.1 µM]	-1%
COc1ccccc1CCc1nnc(CCC(=O)N(C)Cc2cccc3ncccc23)o1	·	?	-5%	·	-22%	3%	-7%[46.1 µM]	-1%
O=S(=O)(c1ccccc1Cl)N1CCC(Cc2ccccc2)CC1	·	?	3%	·	8%	·	·	-4%
COc1ccc(C2=NC(=O)/C(=C\c3cc(OC)c(OC)c(OC)c3)O2)cc1	-5.0%	2%	2%	-3%	0%	24%	26%	-2%
CCC(CC)c1nnc(NC(=O)CSCC(=O)Nc2cc(C)on2)s1	·	4%	·	·	-1%	-13%	0%	0%
O=[N+]([O-])c1ccccc1Nc1c2ccccc2nc2ccccc12	·	-26%	4%	·	2%	?	?	-1%
COc1ccccc1NC(=O)c1ccc(NC2=NC3CS(=O)(=O)CC3S2)cc1 (stereo not drawn)	·	30%[activator]	16%	·	-7%	·	·	-3%
Cn1c(=O)c2cc(S(=O)(=O)N3CCC(c4ccccc4)CC3)ccc2n(C)c1=O	0.3%	·	-45%	-2%	3%	-13%	-2%	2%
CC1C/C(=N/Nc2nc3ccccc3[nH]2)CC(C)(C)C1 (stereo not drawn)	-17%	-1%	14%	-14%	-4%	?	?	5%
COCCCNC(=O)C1CCCN(c2ncnc3onc(C)c23)C1 (stereo not drawn)	-2.4%	?	·	-13%	·	1%[46.1 µM]	·	·
O=C(O)CC/C(=C\c1ccc(N2CCCC2)c([N+](=O)[O-])c1)c1nc2ccccc2s1	·	38%[activator]	·	·	-7%	?	22%[46.1 µM]	-3%
COc1ccc(CN(C)C(C)C(=O)Nc2ccc(S(=O)(=O)N3CCCCC3)cc2)c(OC)c1 (stereo not drawn)	·	-18%	·	·	4%	?	?	0%
O=C(Nc1cccc([N+](=O)[O-])c1)c1ccc2nc(N3C(=O)CCC3=O)sc2c1	-4.2%	-10%	-6%	28%	13%[3.69 µM]	-11%	-15%	7%
Cc1c(NC(=O)Cc2noc3ccccc23)cccc1[N+](=O)[O-]	·	3%	·	·	-10%	-13%[46.1 µM]	-3%[46.1 µM]	-2%
C/C(=N\NC(=O)c1nnn(-c2nonc2N)c1-c1ccccc1)c1cccnc1	·	4%	8%	·	5%	11%[46.1 µM]	0%[46.1 µM]	-3%
CN(c1ccccc1)S(=O)(=O)c1ccc(Cl)nc1	·	5%	·	·	-3%	6%	1%[46.1 µM]	0%
Cc1cc(OCC(=O)NCc2ccncc2)c2c(C)c(C)c(=O)oc2c1	·	-13%	3%	·	6%	16%[46.1 µM]	-7%[46.1 µM]	13%
Cc1ccc(-c2nnc(SCC(=O)Nc3ccccc3F)o2)cc1	1.3%	-9%	-11%	-5%	-8%	·	·	-1%
CCCCN(C)CCN1C(=O)C2C(C(=O)Nc3ccc(C)cc3)C3C=CC2(O3)C1C(=O)NC1CCCCC1 (stereo not drawn)	·	-2%	-15%	·	-17%	·	?	0%
CCc1nnc(NC(=O)C(=O)NCCOC(=O)c2ccccc2Cl)s1	2.8%	·	4%	-22%	-1%	0%	0%	3%
CC(=O)c1cccc(OCC(=O)N2CCCc3ccccc32)c1	·	24%	-1%	·	-15%	11%[46.1 µM]	?	-5%
COc1ccc(Cn2c(NCC(C)C)nc3c2c(=O)n(C)c(=O)n3C)cc1	-2.8%	-22%	·	-8%	·	-1%[46.1 µM]	8%[46.1 µM]	·
CCN(CC)C(=O)C(=O)N/N=C/c1ccc(Br)cc1	4.5%	84%[activator]	-3%	-8%	4%	4%	-1%	-1%
CCOc1ccc(S(=O)(=O)N(C)c2ccc(OCC(=O)NCC3CCCCC3)cc2)cc1	·	0%	·	·	-4%	?	?	-8%
COCCn1cc(C(=O)NCCN(C)C)c2c3ccccc3n(C)c2c1=O	·	-23%	1%	·	1%	·	·	2%
CCN(CC)c1ccc(/C=N/Nc2ccccc2)c(O)c1	-5.3%	26%	19%	-22%	-8%	2%	?	-5%
CCOC(=O)N1CCN(c2c(N3CCN(c4cccc(C)c4C)CC3)c(=O)c2=O)CC1	5.7%	20%	6%	1%	-3%	·	-2%	1%
CC(C)c1[nH]nc2c1C(C1C=CCCC1)C(C#N)=C(N)O2 (stereo not drawn)	·	-28%	0%	·	12%	·	·	0%
OC(CNCc1ccccc1Cl)COc1ccc(F)cc1 (stereo not drawn)	·	-5%	7%	·	-8%	-5%[46.1 µM]	5%[46.1 µM]	4%
O=c1[nH]nc(Cc2ccc(-c3ccc(Cl)cc3)o2)c2ccccc12	1.5%	-4%	13%	-10%	9%	?	?	-7%
O=C(NCC(=O)N1CCN(c2ccccc2O)CC1)c1ccc2c(c1)OCO2	·	-30%	27%	·	-12%	·	·	-8%
CN(CC(=O)Nc1cccc(F)c1)C(=O)/C=C/c1ccc(S(=O)(=O)N2CCCCCC2)cc1	·	-9%	·	·	-1%	-27%	?	·
CC(=O)C1=C(O)C(=O)N(CCCCCC(=O)O)C1c1ccc(N(C)C)cc1 (stereo not drawn)	-4.4%	-25%	0%	0%	-2%	?	-13%[46.1 µM]	-1%
Cc1nnc(NC(=O)CS(=O)(=O)Cc2ccccc2)s1	·	18%	4%	·	9%	-10%[46.1 µM]	?	11%
COc1ccc(OCC(=O)Nc2c(Cl)ccc3nsnc23)cc1	·	-26%	-17%	·	-2%	-12%	-4%	-1%
O=C(c1cccs1)n1nc(-c2ccccc2)nc1NCc1ccco1	-7.1%	-9%	-49%	?	-15%	-7%	-10%	-36%
CCC(=O)Nc1cccc(-c2ccc(N3CCC(C)CC3)nn2)c1	·	-74%	3%	·	-8%	·	·	-3%
Cc1nn(C)cc1CNCc1c(C(=O)N2CCCCC2)nc2c(C)cccn12	·	-4%	-3%	·	9%	-3%	16%[46.1 µM]	0%
Cc1ccc(NC(=O)c2cnccn2)c(Br)c1	·	59%[activator]	-18%	·	-25%	10%	2%	4%
O=C(CN1CCN(S(=O)(=O)c2ccc(Cl)cc2)CC1)Nc1ccc2c(c1)OCCO2	-1.3%	?	-97%	?	-6%	3%	?	4%
CN(CC(=O)Nc1cccc(F)c1)C(=O)CSc1nc2ccccc2s1	·	15%	·	·	5%	?	-6%	·
O=C(NC(O)C(=O)c1ccccc1)c1ccccn1 (stereo not drawn)	·	46%[activator]	-6%	·	6%	-1%[46.1 µM]	-8%[46.1 µM]	-2%
Cc1cc(C)nc(N(C#N)Cc2ccc(Cl)cc2)n1	·	7%	1%	·	-6%	1%	2%[46.1 µM]	0%
O=C(CN1C(=O)c2ccccc2C1=O)Nc1ccccc1C(=O)N1CCCC1	-6.8%	-9%	2%	-2%	-5%	14%	?	-7%
Cc1cccc(C(=O)NCCCNC(=O)c2cccc(C)c2)c1	·	-15%	1%	·	0%	?	21%	-2%
Cc1c(C(=O)O)oc2ccc(S(=O)(=O)NCc3ccc4c(c3)OCO4)cc12	3.2%	-4%	11%	6%	-13%	-1%	-3%	-1%
COc1cc(CNc2ccc3[nH]c(=O)[nH]c3c2)cc(Br)c1OCC(=O)NC(C)(C)C	-9.4%	?	6%	13%	13%	-1%	-24%	2%
Cc1ccc2c(c1)C1CN(C)CCC1N2C(=S)Nc1cccnc1 (stereo not drawn)	·	-22%	-1%	·	1%	·	-30%[46.1 µM]	2%
Cc1ccc(-n2cnc3cc(C(=O)NCc4ccccc4Cl)ccc32)c(C)c1	-0.3%	14%	·	?	·	9%[46.1 µM]	·	·
CN(CC(=O)Nc1ccccc1C(=O)NC1CC1)Cc1ccccc1F	·	2%	·	·	?	2%[46.1 µM]	5%	-2%
CC1(C)CC(=O)c2ccc(OCc3ccc([N+](=O)[O-])cc3)cc2O1	·	21%	-2%	·	14%	-26%	?	0%
O=[N+]([O-])c1cc2no[n+]([O-])c2cc1N1CCCCC1	·	32µM*	·	·	?	-17%	2%	·
O=C(C1CCCN(S(=O)(=O)c2cccc3nonc23)C1)N1CCN(c2cccc(C(F)(F)F)c2)CC1 (stereo not drawn)	-4.5%	?	·	14%	·	-31%[46.1 µM]	13%[46.1 µM]	·
CCc1nc2scc(-c3cccs3)c2c(=O)o1	-9.3%	-13%	12%	-10%	-7%	5%	0%	11%

(listing goes on)
SMILES	Cruzain Triton	StopGo reporter	NS1 inh	Cruzain inh noDet	RE007 growth inh	LASV entry inh	Marburg entry inh	SARS PLpro yeast
CCCC1CCC(c2ccc(OCC)cc2)=CC1=O (stereo not drawn)	·	56%[activator]	-30%	·	5%	·	·	-1%
Cc1cccc(N2CC(c3nc4ccccc4n3CCC3CCCCC3)CC2=O)c1 (stereo not drawn)	-4.1%	-36%	·	-8%	·	?	-1%[46.1 µM]	·
O=C(CCSCCc1ccncc1)NCCCN1CCOCC1	3.7%	-1%	0%	1%	9%	0%	18%	6%
S=C(Nc1ccccc1Cl)N1CCCC1	·	9%	1%	·	-1%	·	·	1%
O=C(NCc1ccncc1)c1nnc(Cc2c(F)cccc2Cl)o1	7.0%	-24%	-5%	-2%	23%	-10%	-21%	3%
CC(=O)Nc1ccc2c(c1)nc(CCN1CCOCC1)n2C	1.7%	-4%	-3%	0%	9%	-1%	5%	0%

Assay outcomes as filed in PubChem BioAssay.
